Ran importin: inhibitors of Ran–importin-beta complex formation, primary screen, biochemical, CFP-Ran/YFP-importin-beta FRET, RCC1, cell-free (AID 434961) | CFP-Ran/YFP-importin-beta FRET, cell-free; hits give high values | inhibition, % | 7,700 tested, 0.2% active;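 active = more than half of the replicate wells above 15% inhibition; inconclusive = exactly half above it; inactive = fewer than half above it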;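 also: 0% = DMSO wells and 100% inhibition = RanGDP control wells on each plate; stock of unstated strength diluted about 400-fold; mean of two wells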
An asterisk follows results filed as active; ? = inconclusive.

mol	Ran importin
CNC[C@@H]1Oc2ccc(NC(=O)CCCN(C)C)cc2C(=O)N([C@@H](C)CO)C[C@H]1C	-1.7
CNC[C@H]1Oc2ccc(NC(=O)Nc3ccc(OC)cc3)cc2C(=O)N([C@@H](C)CO)C[C@@H]1C	-2.3
C[C@H]1CN([C@@H](C)CO)C(=O)Cc2cc(N(C)C)ccc2O[C@@H]1CN(C)S(=O)(=O)c1cn(C)cn1	-3.5
COc1ccc(CN(C)C[C@H]2Oc3ccc(NC(=O)c4ccncc4)cc3C(=O)N([C@H](C)CO)C[C@@H]2C)cc1	-3.4
CC(C)NC(=O)Nc1ccc2c(c1)C(=O)N([C@H](C)CO)C[C@H](C)[C@@H](CN(C)C(=O)Nc1ccccc1)OCCCC[C@@H](C)O2	-0.5
C[C@@H]1CN([C@@H](C)CO)C(=O)c2cc(NC(=O)CCC(F)(F)F)ccc2O[C@@H](C)CCCCO[C@@H]1CN(C)C(=O)c1ccncc1	2.8
C[C@@H]1CN([C@H](C)CO)C(=O)Cc2cc(NC(=O)CCN3CCOCC3)ccc2O[C@H]1CN(C)C	-2.0
C[C@H]1CN([C@@H](C)CO)C(=O)c2cc(NC(=O)Nc3ccc(C(F)(F)F)cc3)ccc2O[C@H]1CN(C)C(=O)NC1CCCCC1	-1.2
C[C@H]1CN([C@@H](C)CO)C(=O)Cc2cc(NS(=O)(=O)c3ccccc3)ccc2O[C@@H]1CN(C)C(=O)NC1CCCCC1	0.5
C[C@H](CO)N1C[C@H](C)[C@@H](CN(C)C(=O)Nc2ccccc2)Oc2ccc(NC(=O)Cc3cn(C)c4ccccc34)cc2CC1=O	0.8
C[C@H](CO)N1C[C@H](C)[C@H](CN(C)C(=O)CCC(F)(F)F)OCc2cn(nn2)CCCC1=O	-0.9
CCCN(C)C[C@@H]1Oc2ncc(-c3ccc(OC)cc3)cc2C(=O)N([C@H](C)CO)C[C@@H]1C	-2.1
CC(C)NC(=O)N(C)C[C@H]1OCCCC[C@H](C)Oc2ccc(N(C)C)cc2C(=O)N([C@H](C)CO)C[C@H]1C	-1.8
C[C@@H]1CN([C@H](C)CO)C(=O)c2cc(NS(=O)(=O)c3cccs3)ccc2O[C@@H](C)CCCCO[C@@H]1CN(C)S(=O)(=O)c1cccs1	-0.8
COc1ccc(CN(C)C[C@H]2Oc3ccc(NC(=O)Nc4ccc(OC)cc4)cc3C(=O)N([C@H](C)CO)C[C@H]2C)cc1	-6.5
C[C@H]1CCCCO[C@H](CN(C)C(=O)CCC(F)(F)F)[C@@H](C)CN([C@@H](C)CO)C(=O)c2cc(NS(=O)(=O)c3cccs3)ccc2O1	1.9
Cc1noc(C)c1NC(=O)Nc1ccc2c(c1)C(=O)N([C@H](C)CO)C[C@H](C)[C@H](CN(C)C)OCCCC[C@H](C)O2	-1.1
Cc1noc(C)c1NC(=O)Nc1ccc2c(c1)C(=O)N([C@@H](C)CO)C[C@@H](C)[C@@H](CN(C)C(=O)Nc1c(C)noc1C)OCCCC[C@@H](C)O2	-0.2
C[C@H]1CN([C@@H](C)CO)C(=O)Cc2cc(NC(=O)CCC(F)(F)F)ccc2O[C@@H]1CN(C)S(=O)(=O)c1ccccc1	-0.1
CNC[C@@H]1Oc2ccc(NS(=O)(=O)c3c(C)noc3C)cc2C(=O)N([C@@H](C)CO)C[C@H]1C	-1.1
C[C@@H]1CN([C@@H](C)CO)C(=O)CCCn2cc(nn2)CO[C@@H]1CN(C)C(=O)Cc1ccccc1	7.7
COc1ccc(CN(C)C[C@@H]2Oc3c(NC(=O)c4ccc(-c5nccs5)cc4)cccc3C(=O)N([C@H](C)CO)C[C@@H]2C)cc1	0.6
C[C@@H]1CCCCO[C@H](CN(C)S(=O)(=O)c2ccccc2)[C@H](C)CN([C@@H](C)CO)C(=O)c2cc(NC(=O)CCC(F)(F)F)ccc2O1	-5.1
C[C@H]1CN([C@@H](C)CO)C(=O)CCCn2nncc2CO[C@@H]1CN(C)Cc1ccc(C(F)(F)F)cc1	-2.3
C[C@@H]1CN([C@@H](C)CO)C(=O)Cc2cc(NC(=O)Nc3cccc4ccccc34)ccc2O[C@@H]1CN(C)S(=O)(=O)c1cn(C)cn1	3.8

The list goes on; it opens with the three that closed the last part.
mol	Ran importin
C[C@@H]1CCCCO[C@H](CN(C)S(=O)(=O)c2ccccc2)[C@H](C)CN([C@@H](C)CO)C(=O)c2cc(NC(=O)CCC(F)(F)F)ccc2O1	-5.1
C[C@H]1CN([C@@H](C)CO)C(=O)CCCn2nncc2CO[C@@H]1CN(C)Cc1ccc(C(F)(F)F)cc1	-2.3
C[C@@H]1CN([C@@H](C)CO)C(=O)Cc2cc(NC(=O)Nc3cccc4ccccc34)ccc2O[C@@H]1CN(C)S(=O)(=O)c1cn(C)cn1	3.8
CC(C)NC(=O)N(C)C[C@@H]1Oc2c(NS(=O)(=O)c3ccccc3)cccc2C(=O)N([C@@H](C)CO)C[C@H]1C	1.8
C[C@H](CO)N1C[C@H](C)[C@H](CN(C)C(=O)NC2CCCCC2)Oc2ccc(NC(=O)Cc3ccccc3)cc2C1=O	2.9
COc1ccc(S(=O)(=O)N(C)C[C@H]2Oc3ccc(NC(=O)CCCN(C)C)cc3C(=O)N([C@@H](C)CO)C[C@H]2C)cc1	1.0
Cc1noc(C)c1NC(=O)N(C)C[C@@H]1Oc2ccc(N(C)C)cc2CC(=O)N([C@@H](C)CO)C[C@@H]1C	1.7
C[C@@H]1CN([C@H](C)CO)C(=O)Cc2cc(NC(=O)Nc3cccc4ccccc34)ccc2O[C@H]1CN(C)CC1CC1	-6.6
C[C@H]1CN([C@@H](C)CO)C(=O)c2cc(NC(=O)NC3CCCCC3)ccc2O[C@@H]1CN(C)C(=O)Nc1ccc(F)cc1	-7.4
C[C@@H]1CN([C@@H](C)CO)C(=O)c2cccc(NC(=O)c3ccncc3)c2O[C@@H]1CN(C)Cc1ccc(Cl)c(Cl)c1	7.3
C[C@@H]1CN([C@H](C)CO)C(=O)c2cccc(NC(=O)c3nc4ccccc4s3)c2O[C@H]1CN(C)C(=O)Nc1ccc(C(F)(F)F)cc1	5.4
C[C@@H]1CCCCO[C@@H](CN(C)C(=O)c2ccncc2)[C@H](C)CN([C@H](C)CO)C(=O)c2cc(NS(C)(=O)=O)ccc2O1	0.9
C[C@@H]1CN([C@@H](C)CO)C(=O)c2cccc(NC(=O)NC3CCCCC3)c2O[C@@H]1CN(C)S(=O)(=O)c1ccc(Cl)cc1	-1.0
C[C@@H]1CN([C@@H](C)CO)C(=O)c2cc(NC(=O)c3ccncc3)ccc2O[C@@H](C)CCCCO[C@@H]1CN(C)Cc1ccncc1	-3.4
C[C@@H]1CN([C@H](C)CO)C(=O)c2cccc(NS(C)(=O)=O)c2O[C@H]1CN(C)S(=O)(=O)c1cccs1	-2.1
C[C@H](CO)N1C[C@H](C)[C@H](CN(C)C(=O)NC2CCCCC2)Oc2c(NC(=O)c3cnccn3)cccc2C1=O	0.0
C[C@@H]1CN([C@H](C)CO)C(=O)c2cc(N(C)C)ccc2O[C@@H]1CN(C)S(=O)(=O)c1cn(C)cn1	2.0
C[C@H]1CN([C@@H](C)CO)C(=O)Cc2cc(NC(=O)C3CC3)ccc2O[C@H]1CN(C)C	-8.6
CC(C)NC(=O)N(C)C[C@@H]1OCCCC[C@@H](C)Oc2ccc(NC(=O)Cc3ccccc3)cc2C(=O)N([C@H](C)CO)C[C@H]1C	-0.4
C[C@@H]1CN([C@H](C)CO)C(=O)c2cc(NC(=O)CCCN(C)C)ccc2O[C@H]1CN(C)Cc1ccc2c(c1)OCO2	4.0
C[C@@H]1CN([C@H](C)CO)C(=O)Cc2cc(NC(=O)Cc3cn(C)c4ccccc34)ccc2O[C@H]1CN(C)C(=O)Nc1ccccc1	2.4
Cc1noc(C)c1NC(=O)Nc1ccc2c(c1)C(=O)N([C@H](C)CO)C[C@@H](C)[C@@H](CN(C)C(=O)Nc1c(C)noc1C)O2	-4.3
C[C@@H]1CCCCO[C@H](CN(C)C(=O)Nc2ccccc2)[C@@H](C)CN([C@@H](C)CO)C(=O)c2cc(NC(=O)Cc3ccccc3)ccc2O1	-0.7
COc1ccc(S(=O)(=O)N(C)C[C@@H]2Oc3ncc(-c4cccc(C(F)(F)F)c4)cc3C(=O)N([C@H](C)CO)C[C@@H]2C)cc1	2.1
C[C@H](CO)N1C[C@H](C)[C@@H](CN(C)C)Oc2c(NS(=O)(=O)c3cccs3)cccc2C1=O	-2.2
Cc1ccc(S(=O)(=O)Nc2ccc3c(c2)C(=O)N([C@H](C)CO)C[C@H](C)[C@@H](CN(C)C(=O)Nc2c(C)noc2C)O3)cc1	3.2
Cc1noc(C)c1S(=O)(=O)Nc1ccc2c(c1)C(=O)N([C@@H](C)CO)C[C@@H](C)[C@H](CN(C)C(=O)Cc1ccccc1)OCCCC[C@H](C)O2	2.9
C[C@H](CO)N1C[C@H](C)[C@@H](CN(C)C(=O)CCC(F)(F)F)OCCCC[C@H](C)Oc2ccc(NC(=O)c3ccncc3)cc2C1=O	4.8

Looked up above:
Ran importin with Cc1noc(C)c1NC(=O)Nc1ccc2c(c1)C(=O)N([C@H](C)CO)C[C@@H](C)[C@@H](CN(C)C(=O)Nc1c(C)noc1C)O2 reads -4.3
Ran importin with Cc1noc(C)c1S(=O)(=O)Nc1ccc2c(c1)C(=O)N([C@@H](C)CO)C[C@@H](C)[C@H](CN(C)C(=O)Cc1ccccc1)OCCCC[C@H](C)O2 reads 2.9

A draw from above in order of formula weight, high to low:
mol	Ran importin
COc1ccc(S(=O)(=O)N(C)C[C@@H]2Oc3ncc(-c4cccc(C(F)(F)F)c4)cc3C(=O)N([C@H](C)CO)C[C@@H]2C)cc1	2.1
C[C@@H]1CN([C@H](C)CO)C(=O)c2cc(NC(=O)CCCN(C)C)ccc2O[C@H]1CN(C)Cc1ccc2c(c1)OCO2	4.0
C[C@@H]1CN([C@H](C)CO)C(=O)Cc2cc(NC(=O)Nc3cccc4ccccc34)ccc2O[C@H]1CN(C)CC1CC1	-6.6

(more compounds)
mol	Ran importin
Cc1ccc(S(=O)(=O)N(C)C[C@@H]2Oc3ccc(NS(C)(=O)=O)cc3C(=O)N([C@H](C)CO)C[C@@H]2C)cc1	-2.1
C[C@H](CO)N1C[C@H](C)[C@H](CN(C)Cc2ccc(F)cc2)Oc2ncc(-c3cc4ccccc4o3)cc2C1=O	-1.0
COc1ccc(S(=O)(=O)Nc2ccc3c(c2)C(=O)N([C@@H](C)CO)C[C@@H](C)[C@H](CN(C)C)O3)cc1	1.3
C[C@H]1CN([C@@H](C)CO)C(=O)c2cccc(NC(=O)Nc3ccc(F)cc3)c2O[C@@H]1CN(C)Cc1ccc(C(F)(F)F)cc1	3.1
CC(C)NC(=O)Nc1ccc2c(c1)C(=O)N([C@H](C)CO)C[C@H](C)[C@H](CN(C)C(=O)c1ccccc1)OCCCC[C@H](C)O2	-2.2
C[C@H]1CN([C@@H](C)CO)C(=O)Cc2cc(N(C)C)ccc2O[C@H]1CN(C)C(=O)Nc1cccc2ccccc12	1.8
C[C@@H]1CCCCO[C@@H](CN(C)C(=O)CCCN(C)C)[C@@H](C)CN([C@H](C)CO)C(=O)c2cc(NC(=O)c3ccncc3)ccc2O1	-4.1
COc1ccc(CN(C)C[C@@H]2Oc3c(NC(=O)c4cc(C)nn4C)cccc3C(=O)N([C@@H](C)CO)C[C@H]2C)cc1	-4.9
C[C@@H]1CCCCO[C@@H](CN(C)C(=O)C2CCCCC2)[C@H](C)CN([C@H](C)CO)C(=O)c2cc(NS(=O)(=O)c3cccs3)ccc2O1	-0.3
CC(C)NC(=O)N(C)C[C@@H]1OCCCC[C@H](C)Oc2ccc(NC(=O)c3ccncc3)cc2C(=O)N([C@H](C)CO)C[C@@H]1C	-1.5
C[C@@H]1CN([C@@H](C)CO)C(=O)Cc2cc(NC(=O)Nc3ccc(C(F)(F)F)cc3)ccc2O[C@H]1CN(C)Cc1ccncc1	0.0
Cc1noc(C)c1S(=O)(=O)Nc1cccc2c1O[C@@H](CN(C)C(=O)Nc1ccc(F)cc1)[C@@H](C)CN([C@H](C)CO)C2=O	-2.5
C[C@@H]1CCCCO[C@@H](CN(C)C(=O)C2CCCCC2)[C@@H](C)CN([C@H](C)CO)C(=O)c2cc(NC(=O)c3ccncc3)ccc2O1	2.7
C[C@@H]1CN([C@@H](C)CO)C(=O)CCCn2cc(nn2)CO[C@H]1CN(C)S(=O)(=O)c1cn(C)cn1	?
Cc1noc(C)c1NC(=O)N(C)C[C@@H]1Oc2ccc(NC(=O)c3ccncc3)cc2CC(=O)N([C@@H](C)CO)C[C@@H]1C	?
COc1ccc(S(=O)(=O)N(C)C[C@@H]2Oc3ccc(NC(=O)Cc4ccccc4)cc3CC(=O)N([C@H](C)CO)C[C@H]2C)cc1	5.6
C[C@H]1CN([C@@H](C)CO)C(=O)Cc2cc(NC(=O)CCC(F)(F)F)ccc2O[C@@H]1CN(C)Cc1ccc2c(c1)OCO2	0.8
C[C@@H]1CN([C@@H](C)CO)C(=O)Cc2cc(NC(=O)C3CC3)ccc2O[C@@H]1CN(C)Cc1ccncc1	-0.6
C[C@@H]1CN([C@H](C)CO)C(=O)Cc2cc(NC(=O)NC3CCCCC3)ccc2O[C@@H]1CN(C)C(=O)Nc1cccc2ccccc12	-5.0
COc1ccc(CN(C)C[C@@H]2Oc3c(NS(=O)(=O)c4ccc(OC)cc4)cccc3C(=O)N([C@@H](C)CO)C[C@H]2C)cc1	0.5
C[C@@H]1CCCCO[C@@H](CN(C)S(=O)(=O)c2ccc(F)cc2)[C@H](C)CN([C@@H](C)CO)C(=O)c2cc(NC(=O)Nc3ccccc3)ccc2O1	1.9
C[C@@H]1CN([C@@H](C)CO)C(=O)c2cc(N(C)C)ccc2O[C@@H](C)CCCCO[C@H]1CN(C)C	-0.4
CC(C)NC(=O)N(C)C[C@@H]1Oc2c(NS(=O)(=O)c3ccccc3)cccc2C(=O)N([C@H](C)CO)C[C@H]1C	4.9
C[C@@H]1CN([C@@H](C)CO)C(=O)c2cccc(NS(C)(=O)=O)c2O[C@@H]1CN(C)S(=O)(=O)c1cccs1	1.5

Screens deposited in PubChem BioAssay by Broad Institute.

Some of the compounds tested; rates above refer to the full screens.
